BJeLR viability – BJeLR cell viability reduction; BJeLR fibroblasts viability, CellTiterGlo ATP luminescence, 48 h; HRASV12, hTERT and SV40 LT/ST transformed; viability loss activity score, % (test concentration not listed); 30,000 compounds, 0.64% hits; AID 2275; in the data active means viability loss activity score above about 50%; about a fifth of its hits are not listed in these tables;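 further: higher score means fewer live cells and less ATP luminescence; stock transfer was 50 or 100 nL into about 30 µL; 0% = vehicle wells and 100% = a reference killing control; one replicate is shown; the record names a cut of 85%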
A1 inhib – A1 inhibition. 21,000 compounds, 0.51% hits. caspase activation, % (test concentration not listed). MEF A1-2A-BIM cells, caspase-Glo luminescence, 3 h; percent of clofoctol signal, DMSO as zero. AID 2241;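 active means most replicate scores above 10, or exactly half above 10 with mean activity above 10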;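 further: effector caspase 3 and 7 activity cleaving a DEVD luciferin substrate; 50 nL library stock added to about 30 µL; numbers are from one replicate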
* hit, by the source's call. Not all compounds are listed, so the mix of outcomes need not match the whole.

What do the screens show for `Cc1noc(C)c1NC(=O)Nc1ccc2c(c1)C(=O)N([C@H](C)CO)C[C@H](C)[C@H](CN(C)S(=O)(=O)c1ccc(Cl)cc1)O2`?
BJeLR viability: 2.3; A1 inhib: 0.2

How did CSc1n[nH]c(NS(=O)(=O)c2ccc(Cl)cc2)c1-c1ccccn1 do in these assays?
BJeLR viability: 0.0; A1 inhib: -0.1

Results for CC(NC(=O)CC(c1ccccc1)c1ccccc1)c1ccccc1 (centres undefined) ?
BJeLR viability: -2.3; A1 inhib: 0.6

What do the screens show for `C[C@@H]1CN([C@@H](C)CO)C(=O)c2cccc(NS(=O)(=O)c3ccc(F)cc3)c2O[C@H]1CN(C)S(=O)(=O)c1cn(C)cn1`?
BJeLR viability: -2.3

What do the screens show for `C[C@H]1CN([C@@H](C)CO)C(=O)c2cc(NS(=O)(=O)c3ccc(F)cc3)ccc2O[C@H]1CN(C)S(=O)(=O)c1cn(C)cn1`?
BJeLR viability: -0.8; A1 inhib: 0.5

Results for O=C(Cc1cccc2ccccc12)NN1C(=O)C2C3C=CC(C3)C2C1=O (centres undefined) ?
BJeLR viability: 2.2; A1 inhib: 0.0

Results for COc1ccc2[nH]c3c(=O)n(CCCCC(=O)Nc4ccccc4)c(=S)[nH]c3c2c1 ?
BJeLR viability: -1.6; A1 inhib: -0.8

What do the screens show for `O=C(C(NS(=O)(=O)c1ccc(Br)s1)c1ccccc1)N1CCOCC1` (centres undefined)?
BJeLR viability: 4.2

How did Cc1cccc(NC(=S)Nc2c(C(C)C)cccc2C(C)C)c1 do in these assays?
BJeLR viability: 0.3; A1 inhib: 1.4

How did COc1ccc(C(=O)c2c(NC(C)=O)sc3c2CCN(C(=O)OC(C)(C)C)C3)cc1 do in these assays?
BJeLR viability: -14; A1 inhib: 0.6

How did Cc1ccc(S(=O)(=O)N(C)C[C@@H]2Oc3ccc(NS(=O)(=O)c4ccc(F)cc4)cc3C(=O)N([C@@H](C)CO)C[C@H]2C)cc1 do in these assays?
BJeLR viability: 0.4; A1 inhib: -0.3

How did C[C@@H]1CN([C@H](C)CO)C(=O)c2cccc(NC(=O)c3ccncc3)c2O[C@@H]1CN(C)S(C)(=O)=O do in these assays?
BJeLR viability: 5.5

How did Nc1ccc(S(=O)(=O)Nc2nccs2)cc1 do in these assays?
BJeLR viability: -3.9; A1 inhib: 0.4

Results for C[C@H]1CN([C@@H](C)CO)C(=O)c2cc(NC(=O)C3CC3)ccc2O[C@@H]1CN(C)Cc1ccc2c(c1)OCO2 ?
BJeLR viability: 0.6; A1 inhib: -0.7

Results for COC(=O)/C=C1\SC(=NC(=O)c2ccc(OC)cc2)NC1=O ?
BJeLR viability: -0.8; A1 inhib: -0.2

Results for C[C@H](CO)N1C[C@H](C)[C@H](CN(C)Cc2ccc(-c3ccccc3)cc2)Oc2ccc(NC(=O)Cn3cnnn3)cc2C1=O ?
BJeLR viability: -2.2; A1 inhib: 1.2

How did COc1ccc(CN(C)C[C@@H]2Oc3c(NC(=O)Nc4ccc(C(F)(F)F)cc4)cccc3C(=O)N([C@H](C)CO)C[C@H]2C)cc1 do in these assays?
BJeLR viability: 2.3

What do the screens show for `C[C@H](CO)N1C[C@H](C)[C@H](CN(C)S(=O)(=O)c2ccc(F)cc2)Oc2c(NC(=O)c3cnccn3)cccc2C1=O`?
BJeLR viability: -3.3

Results for COc1ccc(S(=O)(=O)Nc2ccc3c(c2)C(=O)N([C@H](C)CO)C[C@H](C)[C@@H](CN(C)C(=O)NC2CCCCC2)O3)cc1 ?
BJeLR viability: -6.4; A1 inhib: 0.3

Results for Cc1cc(C(=O)Nc2cccc3c2O[C@@H](CN(C)Cc2ccccc2)[C@H](C)CN([C@@H](C)CO)C3=O)n(C)n1 ?
BJeLR viability: -4.7

4 consecutive compounds already listed:
How did Cc1ccc(S(=O)(=O)N(C)C[C@@H]2Oc3ccc(NS(=O)(=O)c4ccc(F)cc4)cc3C(=O)N([C@@H](C)CO)C[C@H]2C)cc1 do in these assays?
BJeLR viability: 0.4; A1 inhib: -0.3

How did C[C@@H]1CN([C@H](C)CO)C(=O)c2cccc(NC(=O)c3ccncc3)c2O[C@@H]1CN(C)S(C)(=O)=O do in these assays?
BJeLR viability: 5.5

How did Nc1ccc(S(=O)(=O)Nc2nccs2)cc1 do in these assays?
BJeLR viability: -3.9; A1 inhib: 0.4

Results for C[C@H]1CN([C@@H](C)CO)C(=O)c2cc(NC(=O)C3CC3)ccc2O[C@@H]1CN(C)Cc1ccc2c(c1)OCO2 ?
BJeLR viability: 0.6; A1 inhib: -0.7

The listing continues:
How did O=C(O)CCCc1cc2cc(Br)ccc2o1 do in these assays?
BJeLR viability: -2.2; A1 inhib: -3.8

Results for C[C@@H]1CN([C@@H](C)CO)C(=O)c2cccc(NS(=O)(=O)c3ccccc3)c2O[C@H]1CN(C)Cc1ccncc1 ?
BJeLR viability: 7.5

Results for O=C1c2ccccc2C(=O)N1c1nccs1 ?
BJeLR viability: 0.2; A1 inhib: 0.9

How did Cc1cccc(COc2ccc3c(C)cc(=O)oc3c2)c1 do in these assays?
BJeLR viability: 1.2; A1 inhib: -4.3

How did Cc1noc(C)c1NC(=O)N(C)C[C@H]1Oc2c(NC(=O)c3cnccn3)cccc2C(=O)N([C@H](C)CO)C[C@@H]1C do in these assays?
BJeLR viability: -5.2

What do the screens show for `NC(=O)Cc1ccc(O)c(Cl)c1`?
BJeLR viability: -9.3; A1 inhib: 0.3

Results for C[C@@H]1CN([C@@H](C)CO)C(=O)c2cc(NC(=O)C3CCCCC3)ccc2O[C@H]1CN(C)S(C)(=O)=O ?
BJeLR viability: 3.5; A1 inhib: 0.2

Results for CC(C)NC(=O)N(C)C[C@H]1Oc2c(NC(=O)Nc3cccc4ccccc34)cccc2C(=O)N([C@H](C)CO)C[C@@H]1C ?
BJeLR viability: -4.0

Results for C[C@H](CO)N1C[C@H](C)[C@@H](CN(C)C(=O)Nc2ccccc2)Oc2ccc(NC(=O)Nc3ccc(F)cc3)cc2C1=O ?
BJeLR viability: -2.7; A1 inhib: -0.1

What do the screens show for `O=C(O)c1ccc2nc(-c3ccccc3)c(-c3ccccc3)nc2c1`?
BJeLR viability: 5.0; A1 inhib: 0.2

What do the screens show for `C[C@@H]1CN([C@H](C)CO)C(=O)c2cccc(NS(=O)(=O)c3cn(C)cn3)c2O[C@H]1CN(C)Cc1ccccc1`?
BJeLR viability: -2.2

How did C[C@H](CO)N1C[C@H](C)[C@@H](CN(C)CC2CC2)Oc2c(NC(=O)NC3CCCCC3)cccc2C1=O do in these assays?
BJeLR viability: 1.0

What do the screens show for `Cc1ccc(Oc2ncccc2NC(=O)c2ccc(Cl)cc2Cl)c2c1CCC2`?
BJeLR viability: 0.3; A1 inhib: 0.0

How did Nn1c(-c2ccccc2)nc2ccccc2c1=O do in these assays?
BJeLR viability: 2.3; A1 inhib: -2.5

How did CC(C)N(Cc1nc(-c2ccccc2)no1)C(=O)C(C)(C)C do in these assays?
BJeLR viability: 0.0

Results for C[C@H](CO)N1C[C@H](C)[C@H](CN(C)S(C)(=O)=O)Oc2ccc(NC(=O)c3ccncc3)cc2C1=O ?
BJeLR viability: 3.3; A1 inhib: 0.2

What do the screens show for `CC1=C(C(=O)Nc2ccccc2F)C(c2ccsc2)C2=C(CC(C)(C)CC2=O)N1` (centres undefined)?
BJeLR viability: 10; A1 inhib: 0.9

How did Cc1ccc(S(=O)(=O)Nc2cccc3c2O[C@H](CN(C)CC2CC2)[C@@H](C)CN([C@H](C)CO)C3=O)cc1 do in these assays?
BJeLR viability: -2.6

How did NC(=O)c1ccccc1O do in these assays?
BJeLR viability: -16; A1 inhib: -0.3

Results for COc1ccc(S(=O)(=O)Nc2ccc3c(c2)C(=O)N([C@@H](C)CO)C[C@@H](C)[C@H](CN(C)C(=O)Nc2ccc4c(c2)OCO4)O3)cc1 ?
BJeLR viability: 1.3; A1 inhib: 0.0

What do the screens show for `CCSc1nc(O)c(C(C)CC)c(=O)[nH]1` (centres undefined)?
BJeLR viability: -1.6; A1 inhib: 0.1

What do the screens show for `COc1ccc(Nc2ncnc3c2nnn3Cc2ccccc2Cl)c(OC)c1`?
BJeLR viability: -2.7; A1 inhib: -0.9

How did COc1ccc(NC(=O)Nc2ccc3c(c2)C(=O)N([C@H](C)CO)C[C@@H](C)[C@@H](CN(C)Cc2ccc(C(F)(F)F)cc2)O3)cc1 do in these assays?
BJeLR viability: -0.9; A1 inhib: 0.4

What do the screens show for `CCOC(=O)c1cc(-c2ccccc2)n(-c2ccccc2C)n1`?
BJeLR viability: 2.9; A1 inhib: -0.4

How did Cc1ccc(S(=O)(=O)N(C)C[C@H]2Oc3c(NC(=O)Nc4cccc5ccccc45)cccc3C(=O)N([C@H](C)CO)C[C@@H]2C)cc1 do in these assays?
BJeLR viability: -3.8

How did N#CC1=C(N)C(C#N)(C#N)C2(C(=O)N(Cc3ccccc3)c3ccccc32)C2CCCC=C12 (centres undefined) do in these assays?
BJeLR viability: -1.4; A1 inhib: 0.0

What do the screens show for `O=C(c1cc(-c2cccs2)on1)N1CCCc2ccccc21`?
BJeLR viability: 1.6

What do the screens show for `CCOc1ccc(-n2c(SCc3ccccc3)nnc2-c2cccnc2)cc1`?
BJeLR viability: -0.4; A1 inhib: -0.8

What do the screens show for `CSc1nnc(SC)n1CCNC(=O)Nc1cccc(Cl)c1`?
BJeLR viability: 2.6; A1 inhib: 2.5

Results for CC(O)c1cc(-c2ccc(Cl)cc2Cl)no1 (centres undefined) ?
BJeLR viability: -7.1; A1 inhib: -0.5

Overlap with the part before: three compounds; new compounds follow.
What do the screens show for `CCOc1ccc(-n2c(SCc3ccccc3)nnc2-c2cccnc2)cc1`?
BJeLR viability: -0.4; A1 inhib: -0.8

What do the screens show for `CSc1nnc(SC)n1CCNC(=O)Nc1cccc(Cl)c1`?
BJeLR viability: 2.6; A1 inhib: 2.5

Results for CC(O)c1cc(-c2ccc(Cl)cc2Cl)no1 (centres undefined) ?
BJeLR viability: -7.1; A1 inhib: -0.5

How did CC(C)N1CC=C2C(C1)C(c1ccccc1)C(C#N)=C(N)C2(C#N)C#N (centres undefined) do in these assays?
BJeLR viability: 6.0; A1 inhib: 0.0

Results for C[C@H](CO)N1C[C@H](C)[C@H](CN(C)S(C)(=O)=O)Oc2ccc(NC(=O)C3CC3)cc2C1=O ?
BJeLR viability: 2.1; A1 inhib: 0.3

How did C[C@@H]1CN([C@H](C)CO)C(=O)c2cc(NC(=O)Nc3ccc(F)cc3)ccc2O[C@H]1CN(C)C(=O)Nc1ccc(C(F)(F)F)cc1 do in these assays?
BJeLR viability: 3.5; A1 inhib: -0.2

Results for C[C@H](CO)N1C[C@H](C)[C@H](CN(C)Cc2ccc(C(=O)O)cc2)Oc2ccc(NS(C)(=O)=O)cc2C1=O ?
BJeLR viability: 0.1; A1 inhib: 0.2

What do the screens show for `CNC[C@H]1Oc2c(NS(C)(=O)=O)cccc2C(=O)N([C@H](C)CO)C[C@@H]1C`?
BJeLR viability: -0.1

How did Clc1ccc(C2=Nc3cccc4cccc(c34)N2)cc1 do in these assays?
BJeLR viability: 6.1

Results for C[C@@H]1CN([C@@H](C)CO)C(=O)c2cc(NS(=O)(=O)c3ccccc3)ccc2O[C@H]1CN(C)S(=O)(=O)c1cccs1 ?
BJeLR viability: -2.5; A1 inhib: -0.5

Results for CN(CCc1ccc(Cl)c(Cl)c1)CC(O)COc1ccc(NS(C)(=O)=O)cc1 (centres undefined) ?
BJeLR viability: -0.8; A1 inhib: 0.6

Results for CC(C)(C)N1C(=O)c2ccc(C(=O)Nc3nccs3)cc2C1=O ?
BJeLR viability: -6.0; A1 inhib: -2.0

Results for O=C(CCCSc1nc2ccc(Cl)cc2s1)c1ccc(F)cc1 ?
BJeLR viability: 0.2; A1 inhib: 0.9

What do the screens show for `COc1cc2c(C(=O)N3CCCCCC3)cn(C)c(=O)c2cc1OC`?
BJeLR viability: 0.9

How did Cc1ccc(S(=O)(=O)Nc2cccc3c2O[C@@H](CN(C)CC2CCCCC2)[C@H](C)CN([C@H](C)CO)C3=O)cc1 do in these assays?
BJeLR viability: -1.4

Results for O=C(COc1ccccc1)Nc1nccs1 ?
BJeLR viability: 16; A1 inhib: -8.1

What do the screens show for `C[C@H]1CN([C@@H](C)CO)C(=O)c2cccc(NC(=O)c3nc4ccccc4s3)c2O[C@@H]1CN(C)Cc1ccc(Oc2ccccc2)cc1`?
BJeLR viability: -4.6

How did O=S(=O)(c1cccc(-c2cn3ccccc3n2)c1)N1CCCCC1 do in these assays?
BJeLR viability: -4.7

Results for COc1ccc(C2OCC3(O)C(c4ccc(OC)c(OC)c4)OCC23)cc1OC (centres undefined) ?
BJeLR viability: 18; A1 inhib: -0.5

How did Cc1ccc(S(=O)(=O)n2nccc2-c2c(C)nc3ccccn23)cc1 do in these assays?
BJeLR viability: 8.4; A1 inhib: -1.0

Results for Cc1ccccc1N1C(=O)NC(=O)/C(=C\c2cn(CC(=O)N3CCOCC3)c3ccccc23)C1=O ?
BJeLR viability: -1.6; A1 inhib: 1.2

How did O=S1(=O)CC=C(Sc2ccccc2)C1 do in these assays?
BJeLR viability: -5.7; A1 inhib: 0.6

What do the screens show for `C[C@@H]1CN([C@H](C)CO)C(=O)c2cccc(NC(=O)c3ccncc3)c2O[C@@H]1CN(C)Cc1ccncc1`?
BJeLR viability: 1.4

How did C[C@H]1CN([C@@H](C)CO)C(=O)c2cc(NC(=O)Cc3cn(C)c4ccccc34)ccc2O[C@@H]1CN(C)Cc1ccc(Cl)c(Cl)c1 do in these assays?
BJeLR viability: -3.2; A1 inhib: 0.8

Results for C[C@H]1CN([C@@H](C)CO)C(=O)c2cccc(NS(=O)(=O)c3cn(C)cn3)c2O[C@H]1CN(C)CC1CCCCC1 ?
BJeLR viability: 3.7
